Bioassay records: PubChem BioAssay, several laboratories
Rce1 inhib – yeast Ras-converting enzyme inhibition; Q03530; yeast membranes, quenched prenylated peptide cleavage fluorescence; calls only; hit rate 0.27% among 290,000; AID 2563;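 active means fall in fluorescence gain of 50% or more versus controls, with final raw signal at or below 3038400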;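 further: plate controls were neutral control wells for no effect and wells lacking membranes for full effect; tested at 10 µM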
CSC inhib – cancer stem cell inhibition; inhibition, % at 7.5 µM; hit rate 1.1% among 300,000; cancer stem cell-like cells viability, luminescence;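 active means mean at 75% or more and at least half the replicates too; tested in HMLE shEcad cells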;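 further: 0% = median of negative and 100% = median of positive control wells; the first replicate is given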
MT1-MMP act inh – inhibitors of human MT1-MMP activation; P50281; HT1080 RFP-PRO-GFP cells, GFP/RFP ratio fluorescence, overnight; percent of plate control window, DMSO zero; GFP/RFP ratio change, % at 20 µM; hit rate 0.061% among 360,000;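 active means GFP/RFP ratio change of at least 30% with cell ATP level not reduced by more than half and red fluorescence within 50% of control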; further: strong numbers were not always called active
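Assay system: HT1080 cells carrying an RFP-PRO-GFP reporter | Dosing: Single dose of 20 µM compound, 1% DMSO final | Incubation: Cells overnight before dosing, compound overnight, 37 °C, 5% CO2 | Evaluation: GFP/RFP fluorescence ratio | Control set: DMSO and RFP-L50D-GFP cell wells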
UUG fidelity – yeast start codon fidelity modulation | S. cerevisiae UUG-firefly luciferase reporter, luminescence/redox ratio | activity score, % at 18.7 µM | hit rate 0.13% among 350,000 | AID 602363;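 active means replicate mean at a twofold rise or more, about +100% in these data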;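 further: firefly luciferase made from a UUG start codon reports start codon fidelity; reporter light over untreated wells divided by growth signal over untreated wells; some hits fall short of that in this replicate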
HIV Env fusion – blocks HIV Env-driven cell-cell fusion; HeLa-JRFL Env/CEM21 cell fusion, luciferase; inhibition, % at 12.3 µM; hit rate 1.1% among 360,000; AID 651610;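 active means mean replicate inhibition score of at least 50 and every replicate individually at or above 50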;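 further: 0% = plate neutral controls and 100% = maraviroc near 300 nM; one replicate is shown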
PABP polyA inh – PABP-poly(A) binding inhibition; P11940; PABP-poly(A) RNA binding, fluorescence polarization; inhibition, % at 35 µM; hit rate 1% among 290,000; AID 2014;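 active means 50% or more with normal probe brightness, or confirmed in later tests; about a fifth of its hits are not listed in these tables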;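 further: calls also rest on retests at 20 µM and on dose response follow-up; controls were probe without protein and protein plus probe with vehicle; some compounds called inactive have numbers as strong as hits; many hits fall short of the cut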
Target sequence (P11940 whole entry, looked up): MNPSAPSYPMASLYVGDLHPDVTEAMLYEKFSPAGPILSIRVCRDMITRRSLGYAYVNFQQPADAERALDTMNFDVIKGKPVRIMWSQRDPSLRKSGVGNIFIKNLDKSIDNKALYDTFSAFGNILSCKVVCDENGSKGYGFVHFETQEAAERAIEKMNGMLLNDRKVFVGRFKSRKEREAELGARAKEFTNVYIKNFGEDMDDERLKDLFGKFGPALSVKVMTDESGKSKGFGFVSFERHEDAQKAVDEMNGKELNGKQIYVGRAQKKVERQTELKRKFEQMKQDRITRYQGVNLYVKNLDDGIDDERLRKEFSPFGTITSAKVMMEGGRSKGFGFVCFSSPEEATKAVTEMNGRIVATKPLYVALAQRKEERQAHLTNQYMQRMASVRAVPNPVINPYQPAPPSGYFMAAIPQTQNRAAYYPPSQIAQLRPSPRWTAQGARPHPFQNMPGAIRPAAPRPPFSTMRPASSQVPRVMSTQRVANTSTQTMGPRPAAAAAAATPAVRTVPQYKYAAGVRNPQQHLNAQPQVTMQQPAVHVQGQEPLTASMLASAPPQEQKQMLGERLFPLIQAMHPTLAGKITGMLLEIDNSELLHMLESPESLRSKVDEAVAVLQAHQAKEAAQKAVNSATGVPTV
eIF4H FP inh – inhibitors of RNA binding by human eIF4H; AID 2012; Q15056; inhibition, % at 35 µM; eIF4H fluorescence polarization binding assay; hit rate 0.94% among 290,000;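 active means 50% or more with normal probe brightness, or confirmed in later tests; about a fifth of its hits are not listed in these tables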;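 further: calls also rest on retests at 20 µM and on dose response follow-up; 0% = protein and probe with vehicle and 100% = probe without protein; strong numbers were not always called active; many hits fall short of the cut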
MT1-MMP act inh RFP – second read-out of MT1-MMP act inh, no call of its own (marks repeat the call); RFP signal change, %; measured here: RFP expression control read;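 0 = vehicle wells; hits needed this value within 50% of zero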
The depositor's hits bear a star. Some of the compounds tested, so the mix of outcomes need not match the whole.

`O=C(CN1C(=O)NC2(CCCCC2)C1=O)Nc1ccccc1N1CCCCC1` gave MT1-MMP act inh -1, UUG fidelity -7, HIV Env fusion 12 and MT1-MMP act inh RFP 1.
CCCn1c(CN(Cc2ccccc2)Cc2ccccc2)nc2c1c(=O)n(C)c(=O)n2C was read as Rce1 inhib inactive, CSC inhib -14, MT1-MMP act inh -10, UUG fidelity 23, PABP polyA inh -12, eIF4H FP inh 2 and MT1-MMP act inh RFP -21.
`O=C(COC(=O)c1cccc(C(F)(F)F)c1)NCc1ccccc1` gave Rce1 inhib inactive, CSC inhib 13, MT1-MMP act inh 7, PABP polyA inh 4, eIF4H FP inh -4 and MT1-MMP act inh RFP 5.
Screening CC(C)CNS(=O)(=O)c1cc2c3c(c1)CC(=O)N3CCC2 returned Rce1 inhib inactive, CSC inhib 1, MT1-MMP act inh 1, UUG fidelity -7, HIV Env fusion 8, PABP polyA inh 10, eIF4H FP inh -5 and MT1-MMP act inh RFP 2.
For O=C1CC(c2cccc(F)c2)SC(N(c2ccccc2)c2ccccc2)=N1 (stereo not given) the results were Rce1 inhib inactive, CSC inhib -1, MT1-MMP act inh 4, PABP polyA inh 6, eIF4H FP inh -12 and MT1-MMP act inh RFP 3.
`COc1ccc(Br)cc1/C=C1\Oc2ccccc2NC1=O` gave Rce1 inhib inactive, CSC inhib -9, MT1-MMP act inh -2, UUG fidelity -4, HIV Env fusion 1, PABP polyA inh 1, eIF4H FP inh -4 and MT1-MMP act inh RFP 1.
`CCOC(=O)c1c(-c2ccc(F)cc2)csc1NC(=O)CCN1CCOCC1` gave Rce1 inhib inactive, CSC inhib -7, MT1-MMP act inh 2, UUG fidelity -11, HIV Env fusion 15, PABP polyA inh 12, eIF4H FP inh 8 and MT1-MMP act inh RFP 3.
Nc1nnc(C2CCCC2)s1 was read as Rce1 inhib inactive, CSC inhib -10, MT1-MMP act inh 5, UUG fidelity -24, PABP polyA inh -4, eIF4H FP inh 35 and MT1-MMP act inh RFP 1.
Screening COc1cccc(C2(O)CCN(C(=O)Cc3cccnc3)CC2)c1 returned Rce1 inhib inactive, CSC inhib -2, MT1-MMP act inh 4, UUG fidelity 3, PABP polyA inh 1, eIF4H FP inh 3 and MT1-MMP act inh RFP 4.
COc1ccc(C(CNS(=O)(=O)c2ccc(F)cc2)N2CCN(C)CC2)cc1 (stereo not given) was read as Rce1 inhib inactive, MT1-MMP act inh -7, UUG fidelity -2, HIV Env fusion 4 and MT1-MMP act inh RFP 2.

Two records drawn at random from those above, as already listed:
`CCOC(=O)c1c(-c2ccc(F)cc2)csc1NC(=O)CCN1CCOCC1` gave Rce1 inhib inactive, CSC inhib -7, MT1-MMP act inh 2, UUG fidelity -11, HIV Env fusion 15, PABP polyA inh 12, eIF4H FP inh 8 and MT1-MMP act inh RFP 3.
Screening CC(C)CNS(=O)(=O)c1cc2c3c(c1)CC(=O)N3CCC2 returned Rce1 inhib inactive, CSC inhib 1, MT1-MMP act inh 1, UUG fidelity -7, HIV Env fusion 8, PABP polyA inh 10, eIF4H FP inh -5 and MT1-MMP act inh RFP 2.

(next part)
Screening Cc1ccc(NCC(=O)Nc2ccc(Br)cc2)cc1C returned Rce1 inhib inactive, CSC inhib 0, MT1-MMP act inh -1, UUG fidelity -10, HIV Env fusion -20, PABP polyA inh -4, eIF4H FP inh -10 and MT1-MMP act inh RFP 3.
Screening O=C(CSc1ccsc1[N+](=O)[O-])N1CCCCCC1 returned Rce1 inhib inactive, CSC inhib -14, MT1-MMP act inh 2, HIV Env fusion 7, PABP polyA inh -3, eIF4H FP inh 23 and MT1-MMP act inh RFP 2.
For CC1CC(=O)Nc2ccccc2N1C(=O)CSc1ncnc2sccc12 (stereo not given) the results were CSC inhib -21, MT1-MMP act inh -4, UUG fidelity -4 and MT1-MMP act inh RFP 4.
`CC(=O)c1cccc(N2C(=O)C3C4CCC(C4=C(C)C)C3C2=O)c1` (stereo not given) gave Rce1 inhib inactive, CSC inhib 1, MT1-MMP act inh 8, HIV Env fusion 26, PABP polyA inh 8, eIF4H FP inh 10 and MT1-MMP act inh RFP 13.
For CCOC(=O)c1cnc(SCC(=O)Nc2ccc(NC(=O)CC)c(OC)c2)nc1N the results were Rce1 inhib inactive, CSC inhib -15, MT1-MMP act inh -1, HIV Env fusion -38, PABP polyA inh 6, eIF4H FP inh 7 and MT1-MMP act inh RFP -2.
For Cc1cc(=O)oc(C)c1C(=O)Nc1cccc2nonc12 the results were Rce1 inhib inactive, CSC inhib -8, MT1-MMP act inh -1, PABP polyA inh 12, eIF4H FP inh 2 and MT1-MMP act inh RFP 1.
`Cc1cccc(NCc2ccc(Br)cc2)n1` gave Rce1 inhib inactive, CSC inhib -16, MT1-MMP act inh -3, UUG fidelity -6, HIV Env fusion -25, PABP polyA inh 8, eIF4H FP inh 1 and MT1-MMP act inh RFP -2.
`CSc1ncc(F)c(N(CCO)CCO)n1` gave Rce1 inhib inactive, CSC inhib -3, MT1-MMP act inh -2, UUG fidelity -21, HIV Env fusion 20, PABP polyA inh -7, eIF4H FP inh 4 and MT1-MMP act inh RFP 1.
`CN(CC(=O)Nc1cccc(C(F)(F)F)c1)Cc1ccccc1` gave Rce1 inhib inactive, CSC inhib 1, MT1-MMP act inh 0, UUG fidelity -9, HIV Env fusion 6, PABP polyA inh -5, eIF4H FP inh 4 and MT1-MMP act inh RFP -5.
`CCn1c(NCc2ccco2)nc2ccccc21` gave Rce1 inhib inactive, CSC inhib -10, MT1-MMP act inh 5, HIV Env fusion 0, PABP polyA inh 0, eIF4H FP inh 0 and MT1-MMP act inh RFP 5.
Cc1cccc(OCCCCc2c(C)n[nH]c2C)c1C was read as Rce1 inhib inactive, CSC inhib 25, MT1-MMP act inh -9, UUG fidelity -15, PABP polyA inh 8, eIF4H FP inh -3 and MT1-MMP act inh RFP -16.
CC(C)NC(=O)c1ccc(C(C)C)cc1 was read as Rce1 inhib inactive, CSC inhib -19, MT1-MMP act inh -5, UUG fidelity -13, HIV Env fusion -7, PABP polyA inh 13, eIF4H FP inh 3 and MT1-MMP act inh RFP -1.
For Cc1ccc(-c2nc3c4ccccc4ccn3c2Cc2ccccc2)cc1 the results were MT1-MMP act inh -5, UUG fidelity 2, HIV Env fusion 8 and MT1-MMP act inh RFP 1.
`COc1ccc(NC(=O)CSc2ccc(-c3cccnc3)nn2)cc1` gave Rce1 inhib inactive, CSC inhib -6, MT1-MMP act inh 0, UUG fidelity -18, HIV Env fusion -1, PABP polyA inh 2, eIF4H FP inh -3 and MT1-MMP act inh RFP -2.
CC(Nc1ccccc1)c1ccncc1 (stereo not given) was read as Rce1 inhib inactive, CSC inhib -6, MT1-MMP act inh 1, HIV Env fusion 12, PABP polyA inh 4, eIF4H FP inh -2 and MT1-MMP act inh RFP 5.
For O=C(CN1CCN(C(=O)c2ccco2)CC1)Nc1ccc2c(c1)OCCO2 the results were Rce1 inhib inactive, CSC inhib 8, MT1-MMP act inh -4, UUG fidelity -22, HIV Env fusion -51, PABP polyA inh -12, eIF4H FP inh -7 and MT1-MMP act inh RFP 3.
`CNc1cncc(-c2cccc(C(C)=O)c2)n1` gave MT1-MMP act inh -6, UUG fidelity -19, HIV Env fusion 5 and MT1-MMP act inh RFP -5.
For O=C(CCOc1ccccc1)Nc1ccccc1 the results were Rce1 inhib inactive, MT1-MMP act inh 0, PABP polyA inh -4, eIF4H FP inh -12 and MT1-MMP act inh RFP 3.
COc1ccc(-c2c(C#Cc3ccsc3)c3cc(-c4ccc(OC)nc4)ccc3n2C)cc1 was read as CSC inhib 16, MT1-MMP act inh 3, UUG fidelity -7, HIV Env fusion -3 and MT1-MMP act inh RFP 2.
`Cn1c(=O)c2[nH]c(N3CCN(c4ccccc4)CC3)nc2n(C)c1=O` gave Rce1 inhib inactive, CSC inhib 13, MT1-MMP act inh 2, UUG fidelity -14, HIV Env fusion -9, PABP polyA inh 0, eIF4H FP inh 2 and MT1-MMP act inh RFP 2.
Screening CCN(Cc1ccccc1)S(=O)(=O)c1cc(C(=O)NCCCN(C)C)ccc1OC returned Rce1 inhib inactive, CSC inhib -26, MT1-MMP act inh -8, UUG fidelity 4, HIV Env fusion 22, PABP polyA inh -2, eIF4H FP inh 3 and MT1-MMP act inh RFP -3.
CC1(C)CCCC2=C1CC1C(=O)N(N)C(=O)C1C2 (stereo not given) was read as Rce1 inhib inactive, CSC inhib -15, MT1-MMP act inh 1, HIV Env fusion 3, PABP polyA inh -6, eIF4H FP inh -11 and MT1-MMP act inh RFP 0.
For Cc1cccc(N(C)C(=O)CN2C(=O)COc3ccc(S(=O)(=O)N4CCCCCC4)cc32)c1 the results were Rce1 inhib inactive, CSC inhib -1, MT1-MMP act inh -1, UUG fidelity 19, HIV Env fusion 28, PABP polyA inh -9, eIF4H FP inh -9 and MT1-MMP act inh RFP 0.
`COC(=O)c1ccccc1NC(=O)NC1CCC(C)CC1` (stereo not given) gave Rce1 inhib inactive, CSC inhib -1, MT1-MMP act inh -5, HIV Env fusion 18, PABP polyA inh -1, eIF4H FP inh 2 and MT1-MMP act inh RFP -2.
For COCCNC(=O)C(c1ccco1)N(C(=O)Cn1nnc2ccccc21)c1ccc(C)cc1C (stereo not given) the results were Rce1 inhib inactive, CSC inhib -28, MT1-MMP act inh 0, UUG fidelity 16, PABP polyA inh 3, eIF4H FP inh -8 and MT1-MMP act inh RFP 1.
Screening CCN1CCN(S(=O)(=O)c2ccc(Cl)c(C(=O)NC3CCC(C)CC3)c2)CC1 (stereo not given) returned CSC inhib 0, MT1-MMP act inh 0, UUG fidelity -22, HIV Env fusion 2 and MT1-MMP act inh RFP -2.
For COc1c(C)cc(Br)cc1C(=O)NCc1cccnc1 the results were Rce1 inhib inactive, CSC inhib -1, MT1-MMP act inh 1, UUG fidelity -15, PABP polyA inh 1, eIF4H FP inh 3 and MT1-MMP act inh RFP 1.
`CC(=O)N(CCC(Cc1ccccc1)c1ccco1)Cc1ccco1` (stereo not given) gave Rce1 inhib inactive, CSC inhib -2, MT1-MMP act inh -7, UUG fidelity 7, HIV Env fusion 13, PABP polyA inh 4, eIF4H FP inh 3 and MT1-MMP act inh RFP -5.
CC1CCCN(C(=O)CSc2nnc(-c3ccco3)n2C)C1 (stereo not given) was read as Rce1 inhib inactive, CSC inhib -24, MT1-MMP act inh 1, UUG fidelity 4, HIV Env fusion 1, PABP polyA inh 9, eIF4H FP inh 2 and MT1-MMP act inh RFP 4.
Screening CC(NCC(O)COCCC12CC3CC(CC(C3)C1)C2)c1ccccc1 (stereo not given) returned Rce1 inhib inactive, CSC inhib 105*, MT1-MMP act inh -16, UUG fidelity -18, HIV Env fusion 73*, PABP polyA inh -11, eIF4H FP inh -6 and MT1-MMP act inh RFP -14.
`CC1CCCCN1C(=O)COC(=O)CNC(=O)c1sc2ccccc2c1Cl` (stereo not given) gave Rce1 inhib inactive, CSC inhib -5, MT1-MMP act inh 4, HIV Env fusion 2 and MT1-MMP act inh RFP 4.
C=CCn1c(SCC(=O)Nc2cc(C)cc(C)c2)nnc1-c1cnccn1 was read as Rce1 inhib inactive, CSC inhib -8, MT1-MMP act inh 1, UUG fidelity -12, HIV Env fusion 23, PABP polyA inh 10, eIF4H FP inh 3 and MT1-MMP act inh RFP 0.
O=C(Nc1ccc(Cl)cc1F)C1CCN(S(=O)(=O)c2cccc3nonc23)CC1 was read as Rce1 inhib inactive, CSC inhib 1, UUG fidelity -7, HIV Env fusion 2, PABP polyA inh -3 and eIF4H FP inh 3.
CN1CCCC(C(=O)Nc2cccc(Cl)c2)CC1 (stereo not given) was read as MT1-MMP act inh -2, UUG fidelity -30, HIV Env fusion 10 and MT1-MMP act inh RFP 3.
For CC1CCC(NC(=O)C2(C)CCC(=O)N2Cc2cccnc2)CC1 (stereo not given) the results were Rce1 inhib inactive, CSC inhib -8, MT1-MMP act inh 2, UUG fidelity -5, HIV Env fusion 24, PABP polyA inh -15, eIF4H FP inh -5 and MT1-MMP act inh RFP 3.
